Bioassay records from PubChem.
Ecoli rRNA inh – reduced GFP signal of wild-type E. coli, primary screen, bacterial rRNA inhibitor project, GFP/RFP fluorescence, OD600, single point; actives 1.6% (n = 350,000); GFP signal change (wild-type ribosome), % (no concentration beside the values); E. coli WT GFP vs humanized-ribosome RFP mutants, 24 h; active compounds read low; DMSO median 0, no signal -100; AID 720706, 2013;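 active means significant combined selectivity score with lowered wild-type GFP, culture density cut under 30%, mutant RFP and density less affected; inactive means any of these conditions unmet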; further: one replicate is shown; some compounds called inactive have numbers as strong as hits
AF4-AF9 inh – inhibitors of AF4 peptide binding to AF9, primary screen, biochemical, AlphaScreen, biotin-AF4 peptide, FLAG-AF9, single point; AID 651704, 2012; Protein AF-9 (Homo sapiens), P42568; actives 0.47% (n = 350,000); inhibition, % at 10 µM;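 active means every replicate reaching a set inhibition limit, whatever the replicate mean, cut at about 25% in these data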;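 further: 0% = plate neutral control median and 100% = total signal loss; the record names both 10 and 1 µM as test concentration; the first replicate is given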
Target sequence (P42568 whole entry, looked up): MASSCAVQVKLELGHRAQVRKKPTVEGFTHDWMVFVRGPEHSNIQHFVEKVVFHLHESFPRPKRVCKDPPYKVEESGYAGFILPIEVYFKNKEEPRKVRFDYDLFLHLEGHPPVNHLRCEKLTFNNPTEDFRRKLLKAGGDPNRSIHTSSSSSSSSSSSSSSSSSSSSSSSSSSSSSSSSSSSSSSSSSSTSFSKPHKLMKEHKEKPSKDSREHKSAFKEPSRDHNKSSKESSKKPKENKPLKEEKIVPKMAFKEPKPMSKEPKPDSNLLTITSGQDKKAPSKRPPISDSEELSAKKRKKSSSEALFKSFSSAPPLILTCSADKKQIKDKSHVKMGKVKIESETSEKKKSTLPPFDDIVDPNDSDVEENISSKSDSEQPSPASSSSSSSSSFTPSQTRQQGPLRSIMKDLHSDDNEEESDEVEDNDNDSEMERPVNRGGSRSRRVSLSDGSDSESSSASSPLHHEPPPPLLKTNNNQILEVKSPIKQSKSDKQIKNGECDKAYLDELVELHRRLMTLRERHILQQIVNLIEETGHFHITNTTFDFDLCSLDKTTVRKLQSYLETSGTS
FGF22 binding – binders of human FGF22 protein, primary screen, FGF22 synaptogenesis inhibitor project, biophysical, thermal shift, single point | Fibroblast growth factor 22 (Homo sapiens), Q9HCT0 | recombinant FGF22 thermal shift, SYPRO orange fluorescence; percent of sucrose octasulfate shift, DMSO zero | calls only at 9.99 µM | actives 1.5% (n = 340,000) | AID 651658, 2012;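 active means melting point raised past a set limit in the mean and every replicate; three in four hits are not shown here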
Target sequence (Q9HCT0 whole entry, looked up): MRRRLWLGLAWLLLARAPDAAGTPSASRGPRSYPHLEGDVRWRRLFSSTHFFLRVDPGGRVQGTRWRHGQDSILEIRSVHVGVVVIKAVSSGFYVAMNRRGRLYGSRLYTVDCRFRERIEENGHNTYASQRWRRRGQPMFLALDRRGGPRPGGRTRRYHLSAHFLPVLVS
Ecoli rRNA inh OD600 – second read-out of Ecoli rRNA inh, no call of its own (marks repeat the call); OD600 change, %; measured here: OD600 growth;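 optical density of the mix in the first replicate; 0 = DMSO median and -100 = no signal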
Ecoli rRNA inh RFP – recorded beside Ecoli rRNA inh, whose call it bears; RFP signal change, %; measured here: RFP humanized mutant strains;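 first replicate; 0 = DMSO median and -100 = no signal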
The depositor's hits bear a star; i = inactive; & = joins results of further samples. The list is partial; the hit share may differ from the screen's.

smiles	Ecoli rRNA inh	Ecoli rRNA inh OD600	Ecoli rRNA inh RFP	AF4-AF9 inh	FGF22 binding
C[C@H]1CN([C@@H](C)CO)C(=O)Cc2cc(NC(=O)CCCCCC(=O)Nc3ccccc3N)ccc2O[C@H]1CN(C)C(=O)Nc1ccc2c(c1)OCO2	3.6	-2.8	0.8	-0.1	i
CCC(=O)Nc1ccc2c(c1)OC[C@@H](C)NC[C@@H](C)[C@@H](OC)CN(C)C2=O	0.7&-0.5&11.3	3.8&4.3&20.1	-0.2&-2.0&3.5	-0.5&1.1	i
C[C@H](NC(=O)N(C)C[C@H]1OCc2ccccc2-c2ccccc2C(=O)N([C@@H](C)CO)C[C@@H]1C)c1ccccc1	-2.0	-6.8	-2.4	-5.5	i
COCC(=O)Nc1ccc2c(c1)C(=O)N(C)[C@H]1CC[C@H](CC(=O)NCCc3ccccc3)O[C@@H]1CO2	-2.7	-2.7	0.6	-2.7	i
COc1ccc(S(=O)(=O)N(C)C[C@H]2Oc3c(cccc3N(C)C)C(=O)N([C@@H](C)CO)C[C@@H]2C)cc1	-4.7	-4.5	0.9	-4.4	i
Cn1c(NCc2ccc3occc3c2)nc2cc(-c3ccc(F)cc3)sc2c1=O	9.0	15.4	3.3	-2.7	i
Cc1ccc(S(=O)(=O)N(C)C[C@H]2OCCCC[C@H](C)Oc3ccc(NS(=O)(=O)c4ccc(Cl)cc4)cc3C(=O)N([C@H](C)CO)C[C@@H]2C)cc1	-1.0	1.9	-0.3	-1.5	i
C[C@H](CO)N1C[C@H](C)[C@@H](CN(C)Cc2ccc(Cl)c(Cl)c2)OCCCC[C@H](C)Oc2ccc(NS(=O)(=O)c3cn(C)cn3)cc2C1=O	-1.2	-17.2	3.9	4.3	i
COCC(=O)N(C)C[C@@H]1Oc2cc(C#CCN(C)C)ccc2S(=O)(=O)N([C@@H](C)CO)C[C@@H]1C	-0.2	10.6	-2.7	-3.5	i
C[C@H]1CN([C@@H](C)CO)C(=O)c2cc(NC(=O)CCCCCC(=O)Nc3ccccc3N)ccc2O[C@@H]1CN(C)S(=O)(=O)c1cccs1	-1.8	-13.3	2.0	-2.0	i
COc1cccc(C#Cc2ccc3c(c2)O[C@H](CN(C)C(C)=O)[C@@H](C)CN([C@H](C)CO)S3(=O)=O)c1	-7.9	-32.1	-2.6	3.1	i
C[C@@H]1CN([C@@H](C)CO)C(=O)Cc2cc(NS(=O)(=O)c3cccs3)ccc2O[C@H]1CN(C)C(=O)Nc1ccc(F)cc1	3.6	6.9	0.3	0.5	i
Nc1ccc(CC(N)c2csc(Nc3nncc4ccccc34)n2)cc1 (centres undefined)	2.0	1.7	0.8	22.0	i
C[C@@H]1CN([C@@H](C)CO)C(=O)c2cccc(NC(=O)C3CCOCC3)c2O[C@H]1CN(C)S(=O)(=O)c1ccccc1	0.7	-3.5	-0.9	-3.4	i
C[C@@H]1CN([C@@H](C)CO)C(=O)c2cccc(NC(=O)Nc3ccccc3)c2O[C@@H]1CN(C)Cc1ccncc1	0.9	-3.0	-1.7	-0.6	i
C[C@H](CO)N1C[C@H](C)[C@H](CN(C)Cc2ccc(C(F)(F)F)cc2)Oc2ccc(NC(=O)Nc3ccc4c(c3)OCO4)cc2C1=O	-0.2	2.8	4.9	4.5	i
C[C@@H]1CN([C@H](C)CO)C(=O)c2cccc(NS(=O)(=O)c3ccc(F)cc3)c2O[C@H]1CN(C)CC1CCCCC1	0.4	5.0	-1.5	-1.4	i
CCc1ccc2c(c1)NC(=O)C2(C)Cc1ccc(C(F)(F)F)nc1 (centres undefined)	-0.8	-3.5	0.2	-1.1	i
CN1CCN(C(=O)C[C@@H]2CC[C@@H]3[C@H](COC[C@H](O)CN3CC3CCOCC3)O2)CC1	5.5	6.0	-4.4	-3.4	i
COCC(=O)N1[C@H](CO)[C@H](c2ccccc2)C12CN(C(=O)c1cccnc1)C2	8.9	4.0	-3.0	-2.7	i
C[C@H]1CN([C@@H](C)CO)C(=O)c2cc(C3=CCCCC3)cnc2O[C@H]1CN(C)C(=O)c1cccc(F)c1	2.9	8.8	2.6	-10.2	i
C[C@H](C(=O)N(C)C[C@@H]1OCc2ccccc2-c2c(n(C)c3ccccc23)C(=O)N([C@@H](C)CO)C[C@@H]1C)c1ccccc1	-8.5	0.6	-1.2	2.9	i
COc1cc(OC)cc(C2=Cc3ccccc3C(CC(=O)c3ccco3)N2c2ccc(-c3cccnc3)cc2)c1 (centres undefined)	0.5	16.0	37.0	4.5	i
C[C@H](CO)N1C[C@H](C)[C@@H](CN(C)S(=O)(=O)c2ccc(Cl)cc2)Oc2ccc(NC(=O)c3ccncc3)cc2C1=O	-4.5	-7.0	-3.6	-0.4	i
Oc1cccc(C=NN=C2c3ccccc3-c3ccccc32)c1	-33.9*	-12.6*	-9.1*	16.2	i
CO[C@H]1CN(C)C(=O)c2cc(NC(=O)C3CC3)ccc2OC[C@H](C)N(CC2CC2)C[C@@H]1C	2.2	0.8	1.2	-1.8	i
Cc1noc(C)c1S(=O)(=O)N(C)C[C@@H]1Oc2ccc(NC(=O)Nc3cccc4ccccc34)cc2CC(=O)N([C@H](C)CO)C[C@H]1C	-3.8	-9.9	2.3	-1.0	i
C[C@H]1CN([C@@H](C)CO)C(=O)Cc2cc(NS(=O)(=O)c3cccs3)ccc2O[C@H]1CN(C)CC1CCCCC1	0.6	-2.4	6.2	-17.0	i
C[C@@H]1CCCCO[C@H](CN(C)S(=O)(=O)c2ccc(F)cc2)[C@@H](C)CN([C@H](C)CO)C(=O)c2cc(NC(=O)Nc3cccc4ccccc34)ccc2O1	5.6	1.5	0.3	-2.2	i
O=C(O)c1ccc(-c2nn3c(=O)cc(N4CCNCC4)nc3s2)cc1	14.6	6.9	4.4	-1.3	i
C[C@H](CO)N1C[C@H](C)[C@H](CN(C)CC2CC2)OCCCC[C@H](C)Oc2ccc(NC(=O)Nc3ccc(C(F)(F)F)cc3)cc2C1=O	-4.8	-26.6	12.8	13.2	i
C[C@H](CO)N1C[C@H](C)[C@@H](CN(C)S(=O)(=O)c2cccs2)OCCCC[C@H](C)Oc2ccc(NC(=O)CCC(F)(F)F)cc2C1=O	-2.8	-4.1	0.5	-0.5	i
CO[C@@H]1CN(C)C(=O)c2cc(NC(=O)C3CC3)ccc2OC[C@@H](C)N(Cc2ccc(F)cc2)C[C@@H]1C	-2.0	-12.4	2.1	2.3	i
NC(=O)c1ccc(Nc2nc(C(N)COCc3ccccc3)cs2)cc1 (centres undefined)	7.8	12.9	0.1	3.6	i
O=C(C[C@H]1C=C[C@@H](NC(=O)C2CC2)[C@H](CO)O1)NCCCN1CCOCC1	2.9	2.6	6.5	-15.2	i
COC(=O)C(=Cc1ccncc1)c1cccc2ccccc12	-20.1	-48.1	-7.1	2.9	i
N#CC(=Nc1cccc(F)c1)C1=C(O)c2ccccc2C1=O	29.9	-23.4	14.1	0.8	i
COc1ccc(S(=O)(=O)Nc2ccc3c(c2)C(=O)N([C@@H](C)CO)C[C@@H](C)[C@H](CN(C)S(=O)(=O)c2c(C)noc2C)OCCCC[C@H](C)O3)cc1	-3.3	-2.2	-0.1	1.2	i
COc1ccc(S(=O)(=O)N(C)C[C@H]2Oc3cc(-c4ccccc4OC)ccc3S(=O)(=O)N([C@H](C)CO)C[C@H]2C)cc1	2.0	3.6	-2.0	1.5	i
O=C(C[C@@H]1C=C[C@H](NC(=O)NC2CCCCC2)[C@H](CO)O1)NCc1ccc(F)cc1	-0.7	-2.4	0.4	-1.8	i

Arranged by the number under Ecoli rRNA inh RFP (rising): 3 from the list above.
Molecule | Ecoli rRNA inh RFP
Oc1cccc(C=NN=C2c3ccccc3-c3ccccc32)c1 | -9.1*
C[C@H](C(=O)N(C)C[C@@H]1OCc2ccccc2-c2c(n(C)c3ccccc23)C(=O)N([C@@H](C)CO)C[C@@H]1C)c1ccccc1 | -1.2
COc1cc(OC)cc(C2=Cc3ccccc3C(CC(=O)c3ccco3)N2c2ccc(-c3cccnc3)cc2)c1 (centres undefined) | 37.0

Later entries:
smiles	Ecoli rRNA inh	Ecoli rRNA inh OD600	Ecoli rRNA inh RFP	AF4-AF9 inh	FGF22 binding
COc1ccc(NC(=O)N(C)C[C@H]2OCCCC[C@@H](C)Oc3ccc(NC(=O)CCCN(C)C)cc3C(=O)N([C@H](C)CO)C[C@@H]2C)cc1	1.6	6.6	-2.4	0.9	i
O=C(C[C@H]1C[C@H]2c3cc(NC(=O)C4CCC4)ccc3O[C@H]2[C@@H](CO)O1)NCc1ccccn1	4.7	6.8	-1.9	-4.0	i
CC(=O)N1[C@@H]2CN(S(=O)(=O)c3ccc(F)cc3)c3ccccc3[C@@H]2[C@@H]1CO	0.4	1.7	0.6	-0.8	i
CC(C)N(Cc1nnc(-c2ccccc2Cl)o1)C(=O)COc1cccc(Cl)c1	-50.5	-71.3	-11.7	-3.9	i
C[C@@H]1CN([C@@H](C)CO)C(=O)c2cc(NS(C)(=O)=O)ccc2O[C@@H]1CN(C)S(=O)(=O)c1ccc(F)cc1	-1.1	1.2	1.3	-1.7	i
O=C(C[C@@H]1CC[C@@H](NC(=O)c2ccc(F)cc2)[C@H](CO)O1)NCCc1ccccc1	3.7	-1.6	-1.0	-0.6	i
COCC(=O)Nc1ccc2c(c1)C(=O)N(C)C[C@@H](OC)[C@@H](C)CN(Cc1cccc(F)c1)[C@H](C)CO2	1.7	-3.5	2.3	2.8	i
CC[C@@H]1C(c2cccc(C)c2)=NN(c2ccccc2)[C@H]1C(=O)N1CCOC1=O	23.5	8.2	4.4	-4.5	i
C[C@@H]1CN([C@@H](C)CO)C(=O)c2cccc(NS(C)(=O)=O)c2O[C@@H]1CN(C)Cc1ccc(-c2ccccc2)cc1	2.7	-3.9	0.0	7.3	i
CC1C=NC(S(=O)(=O)N2CC[C@H]3[C@@H](CO)N(C)c4ccc(C5=CCCCC5)cc4[C@H]32)=N1 (some centres undefined)	0.2	0.4	2.8	2.1	i
CSc1ncnc2c1ncn2CCCN(C)CCc1ccccn1	1.8	15.9	-6.2	1.7	i
COc1ccc(NC(=O)N(C)C[C@@H]2Oc3ccc(NS(=O)(=O)c4ccc(F)cc4)cc3C(=O)N([C@@H](C)CO)C[C@H]2C)cc1	-1.4	8.1	-2.5	-2.6	i
C[C@@H](O)C#Cc1ccc([C@H]2[C@@H](CO)N3CCCCN(C(=O)c4ccncc4)C[C@H]23)cc1	8.0	2.2	-6.5	0.9	i
N#Cc1cccc(-c2ccc([C@@H]3[C@H](CO)N4CCCCN(C(=O)Nc5cccc(F)c5)C[C@@H]34)cc2)c1	-58.0	-66.0	-5.1	8.2	i
CC(C)C#Cc1ccc2c(c1)O[C@H](CN(C)Cc1ccccc1)[C@H](C)CN([C@H](C)CO)S2(=O)=O	-16.5	-22.0	14.8	4.6	i
COc1ccc(NC(=O)N(C)C[C@@H]2OCCCC[C@H](C)Oc3ccc(NC(=O)Nc4ccccc4)cc3C(=O)N([C@@H](C)CO)C[C@@H]2C)cc1	-1.7	-6.8	2.3	0.1	i
COc1ccc(CN(C)C[C@H]2OCCCC[C@@H](C)Oc3ccc(N(C)C)cc3C(=O)N([C@@H](C)CO)C[C@@H]2C)cc1	3.6	16.2	-3.7	7.6	i
O=C(NC1CCCCC1)[C@H]1[C@H](CO)[C@H]2Cn3c(cccc3=O)[C@H]2N1CC1CCOCC1	0.7	-1.1	-1.1	-0.8	i
C[C@@H](NC(=O)C[C@@H]1CC[C@H]2[C@@H](COC[C@@H](O)CN2C)O1)c1ccccc1	3.7	5.7	-2.4	-1.0	i
O=C(NCC1CC1)[C@@H]1[C@@H](CO)[C@@H]2Cn3c(ccc(-c4cccnc4)c3=O)[C@H]1N2C(=O)C1CCC1	2.2	-1.3	-2.8	-0.7	i
CO[C@@H]1CN(C)C(=O)c2ccc(NC(=O)Nc3cc(F)ccc3F)cc2OC[C@@H](C)NC[C@@H]1C	1.4	8.7	6.6	2.4	i
O=C(Nc1cc(F)ccc1F)N1CC(=O)N2[C@@H](CO)[C@H](c3ccc(C#CC4CCCC4)cc3)[C@@H]2C1	2.4	-19.1	1.5	0.7	i
CO[C@H]1CN(C)C(=O)c2ccc(NC(=O)c3ccccc3F)cc2OC[C@H](C)N(C(C)=O)C[C@H]1C	-0.6	3.7	-1.5	0.1	i
C[C@@H]1CN([C@@H](C)CO)C(=O)Cc2cc(NC(=O)C3CC3)ccc2O[C@H]1CN(C)Cc1ccccc1	0.5	0.5	-2.1	3.3	i
CCOc1cc(OCC)cc(C(=O)N2CCC[C@@H]2C(=O)N2CCC[C@H]2C(=O)NCc2ccccc2)c1	5.4	6.9	4.7	-5.4	i
